GIV-Gai inh – inhibitors of GIV peptide binding to Galpha-i3, primary screen, biochemical, fluorescence polarization, FITC-GIV GBA peptide, rat Galphai3; Guanine nucleotide-binding protein G(i) subunit alpha-3 (Rattus norvegicus), P08753; 90 min; stronger effect = lower value; scaled: aluminum fluoride 0%, vehicle 100%; percent of control (FP), % (no concentration beside the values); hit rate 0.42% among 210,000;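 active = replicate mean at 85% of control or lower, very high polarization wells dropped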;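 note: wells of about 15 µL received 100 nL stock; the first replicate is given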
Target sequence (P08753 whole entry, looked up): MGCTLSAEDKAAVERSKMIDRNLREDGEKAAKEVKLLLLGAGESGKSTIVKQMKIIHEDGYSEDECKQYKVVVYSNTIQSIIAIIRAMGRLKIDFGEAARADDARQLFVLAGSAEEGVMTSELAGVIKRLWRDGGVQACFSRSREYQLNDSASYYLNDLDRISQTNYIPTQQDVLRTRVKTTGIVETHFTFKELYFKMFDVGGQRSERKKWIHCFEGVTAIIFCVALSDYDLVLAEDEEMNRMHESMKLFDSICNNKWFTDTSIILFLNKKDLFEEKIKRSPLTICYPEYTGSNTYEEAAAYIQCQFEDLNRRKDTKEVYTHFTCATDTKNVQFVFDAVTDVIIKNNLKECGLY
HCMV NEC inh – inhibitors of HCMV UL50-UL53 interaction, biochemical, HTRF | normalized percent inhibition | inhibition, % (test concentration not listed) | hit rate 0.15% among 190,000;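 active = both replicates at 50% or more, plus weaker picks with an unusually low signal ratio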;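 note: stock transfer was 100 nL into about 20 µL; 0% = negative control wells and 100% = wells with untagged competitor protein; inactives centre near -12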
Sa growth 42C – S. aureus growth inhibition at 42 and 30 °C, primary screen, LtaS inhibitor project, RN4220, two temperatures | OD600, 20 h, 42 °C; stronger effect = lower value | relative growth, % (concentration not given with the values) | hit rate 0.53% among 170,000 | AID 720641, 2013;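 active = growth at 42 °C up to 50% and 20 or more points under that at 30 °C, or under 10% at both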;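 note: 300 nL library stock went into each well; scaled to the means of positive and negative controls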
Sa growth 42C second temp – also measured in Sa growth 42C; calls as there; relative growth, %; measured here: growth at 30 °C;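 optical density after 20 h as mean of two plates; 100% = untreated growth and lower means inhibition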
* hit, by the source's call; · = no result given; & = joins results of further samples.

nr	Molecule	Sa growth 42C second temp	GIV-Gai inh	HCMV NEC inh	Sa growth 42C
1	Cc1ccccc1-c1nnc2n1C(C)(C)Cc1ccccc1-2	97.4	·	7.7	98.3
2	Cc1cc(-c2cc(S(=O)(=O)NC(C)(C)C)c(C)s2)on1	·	106.5	-36.9	·
3	CCC(C)(C)C(=O)Nc1cc(C)cc(C)c1	83.2	·	-22.7	81.3
4	CN(CCOc1ccccc1Cl)Cc1ccccc1	92.4	·	-15.7	92.0
5	Cn1c(=O)c(C(=O)N2CCN(Cc3ccccc3)CC2)cc2cccnc21	90.3	107.4	-20.4	94.4
6	Cn1cc(CCC(=O)NCc2cccc(Cl)c2)c2ccccc21	·	106.3	14.9	·
7	Cc1cc2[nH]c(=O)c(=O)[nH]c2cc1S(=O)(=O)N(CC(C)C)CC(C)C	95.3	106.4	-3.8	91.1
8	COc1ccc(C=C2C(=O)NC(=O)NC2=O)cc1Oc1ccc([N+](=O)[O-])cc1[N+](=O)[O-]	·	86.7	51.4*	·
9	CCN(C(=O)CSc1nc2ccccc2nc1Cc1ccccc1OC)c1ccccc1	88.5	102.8	·	104.7
10	CC(c1ccccc1)n1c(CCn2ncc3ccccc3c2=O)n[nH]c1=S (stereo not given)	98.1	101.4	-3.2	103.3
11	CCOC(=O)Cn1ccc2cc(S(=O)(=O)N3CCCC3)ccc21	86.0	104.1	-7.5	94.3
12	CCOC(=O)c1cn[nH]c1S(=O)(=O)Nc1ccccc1C	·	100.2	-18.6	·
13	COC(=O)c1ccc(N=Cc2nc(-c3ccccc3Br)oc2O)cc1	·	103.2	-16.5	·
14	O=C(COC(=O)Cc1ccc(Cl)cc1Cl)NC1CC1	93.4	·	-11.3	116.2
15	COc1ccc(Cl)cc1NC(=O)N(C)CCc1c(C)nn(C)c1C	87.5	105.7	·	95.5
16	CC(C)C(c1nnnn1C1CCCC1)N1CCN(C(=O)c2ccco2)CC1 (stereo not given)	94.0	103.2	-4.7	88.5
17	N#CCON1C(=O)c2ccccc2C1=O	88.7	107.5	-5.7	90.5
18	O=C(CCCn1c(=O)c2ccccc2n(Cc2cccc(Cl)c2)c1=O)NCCc1ccc(Cl)cc1	87.2	103.1	-12.5	108.5
19	Cc1c(-c2nnc(C(=O)NCc3ccc(Cl)cc3)o2)oc2ccccc12	·	104.2	-0.3	·
20	COC(=O)c1cc(=O)c2cc(OC)ccc2[nH]1	·	99.9	-51.4	·
21	Cc1ccc2cccc(OCC(N)=O)c2n1	86.6	·	-26.2	87.2
22	O=C(O)CCC/C=C\C[C@@H]1[C@@H](/C=C/[C@H](O)C2Cc3ccccc3C2)[C@@H](F)C[C@@H]1O	·	107.2	-18.1&-18.1&-9.7	·
23	CCOC(=O)c1ccc2nc(/N=C/NOC(=O)c3cccs3)sc2c1	42.1	116.2	-7.0	64.8
24	Cc1ccccc1NC(=O)CSc1nc(-c2ccc(F)cc2)c2cccc(C)c2n1	91.4	99.2	-10.4	93.9
25	Cc1ccc(S(=O)(=O)N(C)c2ccc(OCC(=O)OCC(N)=O)cc2)cc1	89.5	·	-0.7	105.5

Sorted by heavy-atom count (high to low): 17 of the compounds above.
nr	Molecule	Sa growth 42C second temp	GIV-Gai inh	HCMV NEC inh	Sa growth 42C
18	O=C(CCCn1c(=O)c2ccccc2n(Cc2cccc(Cl)c2)c1=O)NCCc1ccc(Cl)cc1	87.2	103.1	-12.5	108.5
9	CCN(C(=O)CSc1nc2ccccc2nc1Cc1ccccc1OC)c1ccccc1	88.5	102.8	·	104.7
8	COc1ccc(C=C2C(=O)NC(=O)NC2=O)cc1Oc1ccc([N+](=O)[O-])cc1[N+](=O)[O-]	·	86.7	51.4*	·
24	Cc1ccccc1NC(=O)CSc1nc(-c2ccc(F)cc2)c2cccc(C)c2n1	91.4	99.2	-10.4	93.9
22	O=C(O)CCC/C=C\C[C@@H]1[C@@H](/C=C/[C@H](O)C2Cc3ccccc3C2)[C@@H](F)C[C@@H]1O	·	107.2	-18.1&-18.1&-9.7	·
5	Cn1c(=O)c(C(=O)N2CCN(Cc3ccccc3)CC2)cc2cccnc21	90.3	107.4	-20.4	94.4
19	Cc1c(-c2nnc(C(=O)NCc3ccc(Cl)cc3)o2)oc2ccccc12	·	104.2	-0.3	·
23	CCOC(=O)c1ccc2nc(/N=C/NOC(=O)c3cccs3)sc2c1	42.1	116.2	-7.0	64.8
15	COc1ccc(Cl)cc1NC(=O)N(C)CCc1c(C)nn(C)c1C	87.5	105.7	·	95.5
11	CCOC(=O)Cn1ccc2cc(S(=O)(=O)N3CCCC3)ccc21	86.0	104.1	-7.5	94.3
1	Cc1ccccc1-c1nnc2n1C(C)(C)Cc1ccccc1-2	97.4	·	7.7	98.3
12	CCOC(=O)c1cn[nH]c1S(=O)(=O)Nc1ccccc1C	·	100.2	-18.6	·
2	Cc1cc(-c2cc(S(=O)(=O)NC(C)(C)C)c(C)s2)on1	·	106.5	-36.9	·
4	CN(CCOc1ccccc1Cl)Cc1ccccc1	92.4	·	-15.7	92.0
20	COC(=O)c1cc(=O)c2cc(OC)ccc2[nH]1	·	99.9	-51.4	·
21	Cc1ccc2cccc(OCC(N)=O)c2n1	86.6	·	-26.2	87.2
17	N#CCON1C(=O)c2ccccc2C1=O	88.7	107.5	-5.7	90.5

More structures follow.
nr	Molecule	Sa growth 42C second temp	GIV-Gai inh	HCMV NEC inh	Sa growth 42C
26	CCSCCOC(=O)C1=C(C)NC2=C(C(=O)CC(c3ccc(OC)cc3)C2)C1c1ccccc1OC (stereo not given)	·	102.2	-13.6	·
27	CCN(C(=O)CSc1nc(-c2ccccc2)nc2cc(=O)[nH]n12)c1ccccc1	·	103.1	-3.1	·
28	Cc1nc(-c2ccc(C(=O)N3CCC(C(=O)N4CCc5ccccc54)CC3)cc2)no1	·	98.1	-25.6	·
29	COC1=C(OC)C2(C=CC1=O)CC(C)(C)N=C2SC (stereo not given)	91.1	100.5	-14.7	95.8
30	CCN(CC)Cc1cc(C(=O)O)oc1C(C)(C)C	110.3	105.5	10.8	112.4
31	CCn1c(C(=O)NCc2ccccc2OC)cc2sccc21	105.8	98.0	5.3	89.7
32	CN(C)CCNC(=O)CCCn1c(=O)c2cccn2c2ccccc21	98.9	97.4	-9.3	109.7
33	CCOc1cc(CNS(=O)(=O)c2ccc3c(c2)CC(=O)N3C)cc(OCC)c1OCC	85.4	105.4	·	81.9
34	COC(=O)c1ccc(NC(=O)c2cc(=O)c3ccc(C)cc3o2)cc1	90.6	107.0	7.7	83.9
35	Cc1cccc(-c2nc3scc(CCNC(=O)c4ccccc4Cl)n3n2)c1	91.0	108.8	·	88.8
36	Cc1cc2n(n1)C(c1cc(C(C)(C)C)c(O)cc1O)Nc1c(C)cccc1-2 (stereo not given)	2.8	101.3	-38.0	13.9
37	CCOc1cc2c(cc1CNC(=O)C1CC1)OC(C)C2 (stereo not given)	96.7	·	-6.6	92.8
38	Cc1nn(-c2ccccc2)nc1C(=O)N(C)c1nnc(C(F)(F)F)s1	84.5	102.0	-34.5	92.1
39	N#CCC(=O)NCc1ccc(Cl)cc1	89.6	·	-21.8	87.6
40	CCc1ccc(-n2ncc(-c3cc(C(=O)Nc4ccc5c(c4)OCCO5)c4ccccc4n3)c2C)cc1	·	98.6	-39.6	·
41	O=C(O)c1cc(/C=N/n2cnnc2)c2c(c1)COCO2	77.3	·	-65.1	97.3
42	c1ccc(CC2CNc3ccccc3CN2)cc1 (stereo not given)	99.7	104.5	-14.2	115.1
43	CCn1c(=O)c2cc(C(=O)N(Cc3ccccc3)C(C)C)sc2c2ccccc21	89.1	98.0	·	97.9
44	CCN1CN=C(Nc2nc(C)c3cc(C)ccc3n2)NC1	92.0	105.1	·	101.9
45	CCC(C)NS(=O)(=O)c1cccs1 (stereo not given)	87.0	105.8	·	103.5
46	CCOC(=O)NC(=S)c1ccc[nH]1	85.8	99.8	-74.4	96.3
47	Cc1cc(C(F)(F)F)nc(/N=C(\N)Nc2ccc(Cl)cc2)n1	83.0	98.4	-30.7	89.9
48	O=C(COc1ccc(C2Nc3cccc4cccc(c34)N2)cc1)Nc1ccccc1	77.0	109.1	·	147.8
49	CCN(CC)C(=O)C1CCN(Cc2ccc(Br)cc2)CC1	96.4	·	-2.8	100.6
50	Cc1cccc(NC(=O)CCCn2c(C)c3cnn(-c4ccccc4)c(=O)c3c2C)c1C	82.3	105.3	-10.2	106.2

nr	Molecule	Sa growth 42C second temp	GIV-Gai inh	HCMV NEC inh	Sa growth 42C
51	COc1cc(OC)c(C2C(C(=O)Nc3ccccc3)=C(C)Nc3ncnn32)cc1OC (stereo not given)	94.2	102.1	-16.9	99.2
52	O=C(C1=C(O)C(=O)N(Cc2ccccc2)C1c1ccco1)c1ccco1 (stereo not given)	66.9	101.1	-24.8	131.0
53	CCCCc1nn2c(=O)cc(CSc3nnc(NC(=O)c4ccco4)s3)nc2s1	88.8	107.1	-36.7	92.7
54	CC1CCc2c(sc3nnn(CC(=O)Nc4ccccc4Cl)c(=O)c23)C1 (stereo not given)	83.2	106.1	-38.5	99.1
55	N#Cc1c(C(F)(F)F)cc(-c2cccs2)nc1SCC(=O)Nc1ccc(Cl)cc1	91.1	120.1	-33.1	100.6
56	O=C(CSc1nnc(-c2ccc3c(=O)n4c(nc3c2)CCCCC4)o1)C12CC3CC(CC(C3)C1)C2	91.8	·	-3.8	102.6
57	CC1=C(C(=O)OCc2ccc(C)cc2)C(c2ccccc2Cl)CC(=O)N1 (stereo not given)	94.4	101.2	-5.4	102.9
58	C=CCNC(=O)c1ccc(Cl)c(S(C)(=O)=O)c1	84.2	·	-30.1	71.4
59	Cc1ccc2oc(C(=O)Nc3ccc(S(=O)(=O)N(C)Cc4ccccc4)cc3)cc(=O)c2c1	82.2	105.9	-11.0	103.4
60	Cn1c(=O)oc2cc(S(=O)(=O)N3CCCC(C(=O)N4CCN(c5ccc(F)cc5)CC4)C3)ccc21 (stereo not given)	66.0	104.1	-36.5	116.3
61	CCCN1CCCc2cc(CN(CCCN3CCOCC3)C(=O)Nc3ccccc3)ccc21	88.1	103.5	-30.7	102.5
62	Cc1csc2ncc(C(=O)N3CCN(c4ccc(F)cc4)CC3)c(=O)n12	·	105.9	-22.1	·
63	Cc1ccc2[nH]c(=O)c3cc(C(=O)N(CCCOC(C)C)Cc4ccco4)sc3c2c1	83.5	102.5	-22.8	99.0
64	O=C(COc1ccc2ccc(=O)oc2c1)Nc1ccc2c(c1)OCCCO2	92.9	·	-15.5	91.0
65	COc1ccc(NC(=O)Cn2c(=O)oc3cc(S(=O)(=O)N4CCCC4)ccc32)cc1OC	93.6	100.9	4.0	111.1
66	Brc1ccc(-c2csc(N/N=C/c3ccco3)n2)cc1	95.1	·	-15.4	82.8
67	O=C1CC(c2ccccc2)C(=O)N1Cc1cccs1 (stereo not given)	93.4	108.1	-7.3	94.0
68	O=C1CSC(c2cn(-c3ccccc3)nc2-c2ccc(Cl)cc2)N1Cc1cccnc1 (stereo not given)	·	109.1	-12.9	·
69	COc1cc(OC)c(NC(=O)CCc2nc(C3=CCN(Cc4cccc(Cl)c4)CC3)no2)cc1Cl	92.0	102.2	·	114.5
70	O=C(c1ccccc1)c1ccc(-c2ccccc2)cc1	92.8	100.6	-26.4	90.1
71	CCOC(=O)C1CCCN(Cn2nnn(-c3ccc(OC)cc3)c2=S)C1 (stereo not given)	97.9	·	-9.2	91.6
72	COc1ccc2nc3oc(C(=O)NC4CC4)cc3cc2c1	69.4	106.7	·	103.8
73	Cc1cc(C)c(NC(=O)CSc2nc3nccnc3c(=O)n2CCc2c[nH]c3ccccc23)c(C)c1	95.2	99.5	-6.3	99.7
74	Cc1cccc(NC(=O)N2CCC3(CC2)Oc2ccccc2C(=O)N3Cc2ccccc2F)c1C	101.0	104.9	-0.6	102.8
75	O=C(NCc1ccc2c(c1)CCN2C(=O)c1ccncc1)c1ccccc1F	96.7	107.4	·	101.1
76	O=C(Nc1ccc(Br)c2cccnc12)c1cccc2ccccc12	87.2	100.6	-20.9	86.8
77	CCOC(=O)/C(C#N)=C/c1cc(C)n(-c2ccc(C)cc2)c1C	106.0	99.3	-11.6	102.9

Source: PubChem (ICCB-Longwood Screening Facility, Harvard Medical School)
